aDG glyco act – alpha-DG glycosylation activation. AID 624168. activation, % at 10 µM. Pro5-aDG cells, alpha-DG glycosylation AlphaScreen (IIH6); 0% Pro5, 100% B10-LARGE cell signal. 360,000 compounds, 0.22% hits;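 active = activation of at least 8% versus controls, or a plate z-score of at least 8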;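 also: Pro5 are CHO cells carrying HIG-tagged alpha-DG that lacks glycosylation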
Vif inh – HIV Vif inhibition; HEK293T cells, Vif self-association by quenched fluorescence, imaging, 24 h; 340,000 compounds, 0.35% hits; inhibition, % at 7.49 µM; in the data active = inhibition above about 50%, passing the limit was not always enough; also: some results filed as inactive read as strong as hits
PDI inh – inhibitors of human protein disulfide isomerase; AID 588391; inhibition, % at 10 µM; P07237; PDI insulin aggregation turbidity, A650, 90 min; 350,000 compounds, 0.052% hits;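 active = mean inhibition across replicates of 30% or more, whatever share of single replicates reach that level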;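 also: absorbance from insulin aggregation driven by PDI reduction with DTT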
iPSC survival up – increases survival of single human iPS cells; survival enhancement, % at 20 µM; 360,000 compounds, 0.044% hits; AID 602274; hiPSC single-cell survival, ATPlite luminescence; 100% = ROCK inhibitor wells, 0% = DMSO; in the data active = survival enhancement above about 18%;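 also: cells exposed to compounds for 16 hours before the ATP read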
NR2E3 ag-1 – agonists of human NR2E3 nuclear receptor | inhibition of corepressor binding, % at 3.98 µM | Q9Y5X4 | 360,000 compounds, 0.35% hits | AID 602229 | CHO-S Gal4-NCOR/VP16-NR2E3 two-hybrid, luciferase;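 active = inhibition above the mean of all tested compounds plus 3 SD, cut at about 70% in these data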;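 also: 0% = DMSO with NR2E3 transfected cells and 100% = cells lacking NR2E3 construct; higher means lower luciferase signal from less NR2E3 corepressor binding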
NR2E3 ag-2 – activates human photoreceptor nuclear receptor NR2E3. Q9Y5X4. GST-NR2E3/biotin-RetCOR TR-FRET, 1536-well. inhibition of corepressor binding, % at 4.78 µM. 320,000 compounds, 0.12% hits. AID 2300;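 active = percent inhibition above the cutoff of mean plus 3 SD of all tested compounds, set per screening campaign, cut at about 20% in these data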;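 also: 0% = DMSO wells and 100% = biotin wells as full block of FRET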
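Material: NR2E3–RetCOR corepressor complex | Quantity: 1.35 nM GST-tagged NR2E3 final | Schedule: 5 h at 4 °C | Replication: Singlicate compound wells | Reagent: RetCOR corepressor, biotinylated, 7 nM | Controls: Biotin wells as high control, 0.6% DMSO wells as low control | Signal: TR-FRET, Eu(K)-anti-GST donor, streptavidin-D2 acceptor, ex 340, em 617/671 nm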
Starred values were filed as active, the others as inactive; & = joins results of further samples. These rows are one share of the data (hit frequency here may not be typical).

The first 3 records as a preview:
What do the screens show for `CN1CCc2c(sc(NC(=O)C3CCCCC3)c2C(N)=O)C1`?
aDG glyco act: -0.2; Vif inh: 3; iPSC survival up: -1.7; NR2E3 ag-1: -1; NR2E3 ag-2: 2

Results for Cc1ccccc1C(=O)N/N=C/c1ccc(Sc2ccccn2)o1 ?
aDG glyco act: -0.1; Vif inh: -1; PDI inh: 3; iPSC survival up: 0.3; NR2E3 ag-1: -4; NR2E3 ag-2: 1

What do the screens show for `CN[C@H]1CC[C@@H](c2ccc(Cl)c(Cl)c2)c2ccccc21`?
aDG glyco act: 1.6&1.6; Vif inh: 13&6; PDI inh: 6&6; iPSC survival up: -1.3&-4.8; NR2E3 ag-1: -11&-3; NR2E3 ag-2: -2&3

The list itself, from the first entry:
What do the screens show for `CN1CCc2c(sc(NC(=O)C3CCCCC3)c2C(N)=O)C1`?
aDG glyco act: -0.2; Vif inh: 3; iPSC survival up: -1.7; NR2E3 ag-1: -1; NR2E3 ag-2: 2

Results for Cc1ccccc1C(=O)N/N=C/c1ccc(Sc2ccccn2)o1 ?
aDG glyco act: -0.1; Vif inh: -1; PDI inh: 3; iPSC survival up: 0.3; NR2E3 ag-1: -4; NR2E3 ag-2: 1

What do the screens show for `CN[C@H]1CC[C@@H](c2ccc(Cl)c(Cl)c2)c2ccccc21`?
aDG glyco act: 1.6&1.6; Vif inh: 13&6; PDI inh: 6&6; iPSC survival up: -1.3&-4.8; NR2E3 ag-1: -11&-3; NR2E3 ag-2: -2&3

Results for CNC(=O)c1ccc(NC(=O)c2cccc(C(F)(F)F)c2)cc1 ?
aDG glyco act: 0.0; Vif inh: -3; PDI inh: -6; iPSC survival up: 2.6; NR2E3 ag-1: 1; NR2E3 ag-2: -1

What do the screens show for `CNC(=O)c1cc(Oc2ccc(NC(=O)Nc3ccc(Cl)c(C(F)(F)F)c3)cc2)ccn1`?
aDG glyco act: 1.0; Vif inh: -4; PDI inh: -1; iPSC survival up: 2.2; NR2E3 ag-1: 92*; NR2E3 ag-2: 5

How did O=c1[nH]c(Nc2ccccc2Cl)cc2ccccc12 do in these assays?
aDG glyco act: -0.2; Vif inh: 10; PDI inh: -1; iPSC survival up: 2.5; NR2E3 ag-1: -39; NR2E3 ag-2: 1

Results for COc1ccccc1C(=O)NNC(=S)NC(=O)c1ccco1 ?
aDG glyco act: 0.6; Vif inh: -3; PDI inh: -5; iPSC survival up: 2.3; NR2E3 ag-1: 35; NR2E3 ag-2: -3

Results for COc1cccc(C(=O)Nc2cc3c(cc2N2CCCC2)n(C)c(=O)n3C)c1 ?
aDG glyco act: -0.1; Vif inh: 6; PDI inh: -3; iPSC survival up: 0.4; NR2E3 ag-1: -8; NR2E3 ag-2: -7

How did COc1cccc(N2CCN(CC(=O)Nc3ccc(-n4cnnn4)cc3)CC2)c1 do in these assays?
aDG glyco act: -0.2; Vif inh: -1; PDI inh: 3; iPSC survival up: 0.0; NR2E3 ag-1: 10; NR2E3 ag-2: 0

How did CN(C)C(=O)c1cccc(COc2ccc(N3C(N)=NC(N)=NC3(C)C)cc2Cl)c1 do in these assays?
aDG glyco act: -0.1; Vif inh: 8; PDI inh: -1; iPSC survival up: -1.5; NR2E3 ag-1: 5
